# Screening results from PubChem.
# eIF4H FP inh: human eIF4H binding inhibitors, primary screen, translation initiation inhibitor project, biochemical, uHTS, fluorescence polarization; eIF4H fluorescence polarization binding assay; inhibition, % at 35 µM; hit rate 0.94% among 290,000;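 active means 50% or more with normal probe brightness, or confirmed in later tests; about a fifth of its hits are not listed in these tables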;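 further: calls also rest on retests at 20 µM and on dose response follow-up; 0% = protein and probe with vehicle and 100% = probe without protein; strong numbers were not always called active; many hits fall short of the cut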
# Yeast UUG start: modulators of yeast start codon fidelity, primary screen, whole organism, S. cerevisiae, single point, plate reader. S. cerevisiae UUG-firefly luciferase reporter, luminescence/redox ratio. activity score, % at 18.7 µM. hit rate 0.13% among 350,000. AID 602363, 2012;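 active means replicate mean at a twofold rise or more, about +100% in these data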;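 further: firefly luciferase made from a UUG start codon reports start codon fidelity; reporter light over untreated wells divided by growth signal over untreated wells; some hits fall short of that in this replicate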
# MT1-MMP act inh: blockers of MT1-MMP proenzyme processing, primary screen, HT1080 RFP-PRO-GFP cells, GFP/RFP fluorescence; GFP/RFP ratio fluorescence, overnight; percent of plate control window, DMSO zero; hit rate 0.061% among 360,000; GFP/RFP ratio change, % at 20 µM;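 active means GFP/RFP ratio change of at least 30% with cell ATP level not reduced by more than half and red fluorescence within 50% of control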; further: strong numbers were not always called active
#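 Material: RFP-PRO-GFP reporter HT1080 cells. Dosing: single-point 20 µM compound, 1% DMSO. Controls: DMSO and RFP-L50D-GFP cell wells. Timing: cells overnight before dosing, compound overnight, 37 °C, 5% CO2. Measure: GFP/RFP fluorescence ratio.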
# PABP FP inh: PABP poly(A) RNA binding inhibitors, primary screen, biochemical, fluorescence polarization, uHTS. Polyadenylate-binding protein 1 (Homo sapiens), P11940. inhibition, % at 35 µM. hit rate 1% among 290,000;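 active means 50% or more with normal probe brightness, or confirmed in later tests; about a fifth of its hits are not listed in these tables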;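 further: calls also rest on retests at 20 µM and on dose response follow-up; controls were probe without protein and protein plus probe with vehicle; some compounds called inactive have numbers as strong as hits; many hits fall short of the cut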
# Target sequence (P11940 whole entry, looked up): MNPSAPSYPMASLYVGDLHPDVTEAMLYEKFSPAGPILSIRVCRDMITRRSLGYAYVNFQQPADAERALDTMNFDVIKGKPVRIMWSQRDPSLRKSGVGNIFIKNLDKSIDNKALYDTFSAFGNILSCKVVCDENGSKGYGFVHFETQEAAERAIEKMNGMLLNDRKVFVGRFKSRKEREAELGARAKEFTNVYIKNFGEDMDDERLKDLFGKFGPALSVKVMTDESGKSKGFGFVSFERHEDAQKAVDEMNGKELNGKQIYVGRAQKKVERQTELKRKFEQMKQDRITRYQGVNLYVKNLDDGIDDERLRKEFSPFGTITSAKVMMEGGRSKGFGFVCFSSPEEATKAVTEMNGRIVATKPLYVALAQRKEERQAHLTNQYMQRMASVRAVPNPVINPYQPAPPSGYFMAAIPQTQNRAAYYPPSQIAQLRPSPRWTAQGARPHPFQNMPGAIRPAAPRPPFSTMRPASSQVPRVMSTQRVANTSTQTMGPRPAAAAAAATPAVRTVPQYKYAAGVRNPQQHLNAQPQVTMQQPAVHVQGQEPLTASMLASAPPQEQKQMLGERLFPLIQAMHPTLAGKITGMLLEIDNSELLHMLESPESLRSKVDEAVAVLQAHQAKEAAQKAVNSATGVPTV
# CSC inhib: cancer stem cell viability inhibitors, primary screen, luminescence; cancer stem cell-like cells viability; inhibition, % at 7.5 µM; hit rate 1.1% among 300,000;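 active means mean at 75% or more and at least half the replicates too; tested in HMLE shEcad cells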;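 further: 0% = median of negative and 100% = median of positive control wells; the first replicate is given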
# Rce1 inhib: yeast Rce1p protease inhibitors, primary screen, biochemical, fluorescence, cell-free homogeneous. CAAX prenyl protease 2 (Saccharomyces cerevisiae (strain ATCC 204508 / S288c)), Q03530. yeast membranes, quenched prenylated peptide cleavage fluorescence. calls only. hit rate 0.27% among 290,000. AID 2563, 2010;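 active means fall in fluorescence gain of 50% or more versus controls, with final raw signal at or below 3038400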;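 further: plate controls were neutral control wells for no effect and wells lacking membranes for full effect; tested at 10 µM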
# Target sequence (Q03530 whole entry, looked up): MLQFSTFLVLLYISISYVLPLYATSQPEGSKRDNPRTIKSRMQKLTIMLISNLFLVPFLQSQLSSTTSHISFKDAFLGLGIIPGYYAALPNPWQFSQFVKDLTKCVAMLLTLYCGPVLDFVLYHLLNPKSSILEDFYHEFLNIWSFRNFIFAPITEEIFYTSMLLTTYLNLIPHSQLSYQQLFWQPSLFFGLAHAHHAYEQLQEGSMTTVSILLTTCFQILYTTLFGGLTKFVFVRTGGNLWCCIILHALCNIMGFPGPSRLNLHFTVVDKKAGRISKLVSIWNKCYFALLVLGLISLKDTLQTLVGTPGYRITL
# HIV Env fusion: inhibitors of HIV-1 Env-driven cell-cell fusion, primary screen, HeLa-JRFL effector, CEM21 target cells, luciferase; inhibition, % at 12.3 µM; hit rate 1.1% among 360,000;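 active means mean replicate inhibition score of at least 50 and every replicate individually at or above 50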;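 further: 0% = plate neutral controls and 100% = maraviroc near 300 nM; one replicate is shown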
# MT1-MMP act inh RFP: further read-out of MT1-MMP act inh, marked with its call; RFP signal change, %; measured here: RFP expression control read;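 0 = vehicle wells; hits needed this value within 50% of zero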
# * marks the source's active call; other numbers are inactive results; i = inactive; · = no result given. A portion of the library. The share of hits here may be higher or lower than overall.
SMILES,eIF4H FP inh,Yeast UUG start,MT1-MMP act inh,MT1-MMP act inh RFP,PABP FP inh,CSC inhib,Rce1 inhib,HIV Env fusion
CCOC(=O)c1sc(N2N=C(C)C(N=Nc3cccc(C)c3)C2=O)nc1C (configuration not stated),9,1,10,8,13,14,i,11
CCCCn1c(N)c(Sc2ccc(Cl)cc2)c(=O)[nH]c1=O,-17,-13,2,-1,8,-4,i,·
CC1(C)SC(=S)N(c2ccccc2)C1/[N+]([O-])=C/c1cccc([N+](=O)[O-])c1 (configuration not stated),-2,-5,3,-2,0,5,i,3
CCOC(=O)C1=C(C)NC(=S)N(C(C)=O)C1c1ccccc1 (configuration not stated),-6,-18,1,2,0,0,i,·
C=CCNC(=O)CSc1nc2sc3c(c2c(=O)n1CCC)CCC3,1,-12,4,-3,2,-9,i,12
CC(C)C1Cc2c(sc3[nH]c(=S)n(Cc4ccccc4)c(=O)c23)CO1 (configuration not stated),11,-9,6,-2,4,139*,i,·
Cc1ccc(OCC(=O)Nc2ccc(F)cc2)c([N+](=O)[O-])n1,6,·,2,2,8,-6,i,-16
CN(c1ccccc1C(=O)Nc1ccc2c(c1)OCCO2)S(C)(=O)=O,-6,-18,0,0,0,-5,i,-31
CCCn1cc2c(c1-c1cccc(C)c1)c(=O)n(C)c(=O)n2C,0,25,2,6,4,·,i,·
Cc1ccc(S(=O)(=O)N2CCOCC2)cc1C(=O)NCc1cccnc1,-4,-12,-4,3,-5,-14,i,·
COc1ccc(C(=O)C2CCCN(C(=O)CCNC(C)=O)C2)cc1OC (configuration not stated),10,-13,2,4,-1,2,i,-44
CN(C)C=Nc1nonc1-c1ccccc1,-3,·,0,6,0,-4,·,-3
CCOC(=O)Cn1c(O)c(N=NC(=O)OC)c2ccccc21,1,-23,-1,4,-1,7,i,13
CN1CCN(CCC(=O)N/N=C/C=C2\N(C)c3ccccc3C2(C)C)CC1,1,·,-6,4,-9,4,i,9
CCCNS(=O)(=O)c1cccc(C(=O)NNC(=O)c2cc(C)oc2C)c1,·,-6,-1,2,·,8,i,-18
Cc1ccsc1C(=O)N(C)CC(=O)N(CC(C)C)c1c(N)n(CC(C)C)c(=O)[nH]c1=O,·,-6,1,7,·,17,i,-3
Cc1ccc(OCC(=O)Nc2ccc(C)c(S(=O)(=O)N3CCCCC3)c2)c([N+](=O)[O-])n1,-10,·,0,-11,-7,-8,i,28
NS(=O)(=O)c1ccc(CCNC(=O)CCC(=O)c2cccs2)cc1,·,3,-5,2,·,-1,·,0
CCOc1cccc(C(=O)NC2CCCCC2)c1,1,-32,-2,-3,10,-1,i,·
O=C(Oc1ccccc1)c1ccc2c(c1)C(=O)N(Cc1ccncc1)C2=O,-8,-23,0,3,-8,-16,i,12
CCCCN(CC)CCNC(=O)c1cc2cc3ccc(Cl)cc3nc2o1,-6,-15,-3,-7,-7,5,i,8
CC(C)NC(=O)c1cnn2c1NC(c1cccs1)CC2C(F)(F)F (configuration not stated),1,·,-2,0,5,0,i,-20
CCOC(=O)Cc1csc(SCC(=O)NC2CCS(=O)(=O)C2)n1 (configuration not stated),·,-12,-3,0,·,·,·,-3
COc1ccc(S(=O)(=O)N2CCC3(CC2)CC(=O)c2ccccc2O3)cc1OC,·,·,-5,-3,·,-9,i,0
CCOC(=O)c1cc(NC(=O)CN2CCCC2)cc(C(=O)OCC)c1,-17,-1,3,2,0,-7,i,2

# (next part)
SMILES,eIF4H FP inh,Yeast UUG start,MT1-MMP act inh,MT1-MMP act inh RFP,PABP FP inh,CSC inhib,Rce1 inhib,HIV Env fusion
NCCC(=O)N1c2ccccc2Sc2ccccc21,-11,-14,3,4,-4,-1,i,-23
CCCCC1=CC2=CC(=O)C(C)(OC(=O)CC)C(=O)C2=CN1CCc1ccc(Br)cc1 (configuration not stated),3,0,1,5,12,-1,i,-98
Cc1ccsc1S(=O)(=O)N1CCC(CO)(CC2CCCCO2)CC1 (configuration not stated),6,·,1,0,3,35,i,5
COc1cccc(OC)c1NC(=O)C1CCCN1C(=O)Nc1ccccc1F (configuration not stated),-14,-1,0,0,6,·,i,0
COc1ccc(NC(=O)CSc2nnc(CN3CCOCC3)n2C)cc1Cl,4,-17,-3,-2,-3,12,i,-1
Cc1ccc(CNC(=O)c2ccccc2NS(=O)(=O)c2ccc(Cl)nc2)cc1,-9,-10,-3,-13,-4,22,i,15
COc1ccc(C(=O)NCC(c2cccs2)N2CCc3ccccc32)cc1OC (configuration not stated),·,-1,-5,-7,·,7,i,19
COc1ccc(C)cc1Nc1n[n+](-c2ccccc2)c(-c2ccc(SC)cc2)s1,-11,-1,5,1,-7,60,i,-109
CC1Cc2cc(S(=O)(=O)CCC(=O)N3CCN(c4ccccc4)CC3)ccc2N1C(=O)C1CC1 (configuration not stated),-2,6,8,-6,24,1,i,6
CCc1c(C#N)c(SCCC(=O)Nc2ccc(OC)cc2)nc2c1C(=O)CC(C)(C)C2,-11,-16,-3,-4,-12,13,i,·
O=C(COc1ccc(Br)cc1)Nc1ccc(Cc2ccncc2)cc1,-6,·,2,4,11,39,i,22
CC(C)c1c(C(=O)N/N=C/c2cccc(OCc3ccc(F)cc3)c2)nnn1-c1nonc1N,-4,-32,0,-16,3,26,i,-2
CCn1ncc(Br)c1C(=O)N(C)C12CC3CC(CC(C3)C1)C2,-4,·,1,-3,5,-21,i,·
CCOC(=O)c1ccc(NC(=O)Cn2c(C)nc3c(sc(=S)n3CC)c2=O)cc1,-4,-18,4,-4,2,4,i,-6
COC(=O)/C(=C1/Oc2cc(C)oc(=O)c2S1)C(F)(F)F,0,-10,-17,-13,6,-14,i,·
CCN(Cc1ccccc1)C(=S)Nc1cc(C(=O)OC)ccc1C(=O)OC,-4,-13,-3,-3,-4,25,i,·
CCC(C)(C)n1nnnc1C(c1ccc(C)cc1)N1CCN(C(=O)c2ccco2)CC1 (configuration not stated),-9,12,-4,-4,-10,-18,i,-37
O=[N+]([O-])c1cccc(C2=NCCC(c3ccccc3)O2)c1 (configuration not stated),-4,-10,-2,2,7,12,i,-13
O=C(COC(=O)c1cc[n+]([O-])cc1)Nc1ccc([N+](=O)[O-])cc1C(F)(F)F,·,10,0,-1,·,·,·,1
Cc1noc2ncnc(Sc3ccc(Br)cc3)c12,-7,-23,-7,-9,28,50,i,-32
Cc1ccc(CNC(=O)C2CCCN2C(=O)Nc2ccc(C)cc2)cc1 (configuration not stated),4,1,-3,0,2,2,i,-3
CSc1nc(N2CCOCC2)c2c(c1C#N)CCCCC2,0,-15,-3,-4,-3,-12,i,·
COc1cccc(NC(=O)CN(C)C(=O)Cc2ccc3c(c2)CCC3)c1,·,6,8,-2,·,·,·,2
NC(=O)CC(NC(=O)Cc1cccc2ccccc12)c1ccc(NCCN2CCCC2)c([N+](=O)[O-])c1 (configuration not stated),-11,-5,1,7,7,-1,i,-32
O=C(O)CCCn1ccc2cc(S(=O)(=O)N3CCCC3)ccc21,-11,-17,3,1,0,-8,i,2

# 11 structures already listed, arranged by molecular weight, highest first.
SMILES,eIF4H FP inh,Yeast UUG start,MT1-MMP act inh,MT1-MMP act inh RFP,PABP FP inh,CSC inhib,Rce1 inhib,HIV Env fusion
CCCCC1=CC2=CC(=O)C(C)(OC(=O)CC)C(=O)C2=CN1CCc1ccc(Br)cc1 (configuration not stated),3,0,1,5,12,-1,i,-98
CC(C)c1c(C(=O)N/N=C/c2cccc(OCc3ccc(F)cc3)c2)nnn1-c1nonc1N,-4,-32,0,-16,3,26,i,-2
CCc1c(C#N)c(SCCC(=O)Nc2ccc(OC)cc2)nc2c1C(=O)CC(C)(C)C2,-11,-16,-3,-4,-12,13,i,·
CCC(C)(C)n1nnnc1C(c1ccc(C)cc1)N1CCN(C(=O)c2ccco2)CC1 (configuration not stated),-9,12,-4,-4,-10,-18,i,-37
CCN(Cc1ccccc1)C(=S)Nc1cc(C(=O)OC)ccc1C(=O)OC,-4,-13,-3,-3,-4,25,i,·
O=C(COC(=O)c1cc[n+]([O-])cc1)Nc1ccc([N+](=O)[O-])cc1C(F)(F)F,·,10,0,-1,·,·,·,1
Cc1ccsc1S(=O)(=O)N1CCC(CO)(CC2CCCCO2)CC1 (configuration not stated),6,·,1,0,3,35,i,5
Cc1noc2ncnc(Sc3ccc(Br)cc3)c12,-7,-23,-7,-9,28,50,i,-32
COC(=O)/C(=C1/Oc2cc(C)oc(=O)c2S1)C(F)(F)F,0,-10,-17,-13,6,-14,i,·
CSc1nc(N2CCOCC2)c2c(c1C#N)CCCCC2,0,-15,-3,-4,-3,-12,i,·
O=[N+]([O-])c1cccc(C2=NCCC(c3ccccc3)O2)c1 (configuration not stated),-4,-10,-2,2,7,12,i,-13

# (listing goes on)
SMILES,eIF4H FP inh,Yeast UUG start,MT1-MMP act inh,MT1-MMP act inh RFP,PABP FP inh,CSC inhib,Rce1 inhib,HIV Env fusion
O=C(CC1CCCC1)N1CCN(S(=O)(=O)c2cccc(F)c2)CC1,·,11,0,-1,·,·,·,9
COc1ccc(Cn2c(=N)c(C(=O)NCC3CCCO3)cc3c(=O)n4ccccc4nc32)cc1 (configuration not stated),-3,10,3,4,2,6,i,·
Cc1ccc(C2=CC(c3ccccc3)n3ncnc3N2)c(C)c1 (configuration not stated),·,-23,0,1,·,-3,i,-23
NC(=O)C[n+]1cccc(/C=N/O)c1,7,·,-5,-3,10,-4,·,-9
COc1ccc(NC(=O)CCCNS(=O)(=O)c2cccs2)cc1,-8,5,3,-1,3,-4,i,-67
O=C(c1ccco1)N1CCN(CCOc2ccccc2)CC1,1,-19,1,1,0,-2,i,-2
COC(=O)c1c(C(=O)c2ccc(Br)cc2)n(C)c2ccccc12,·,-2,3,-3,·,25,·,1
Cc1ccc(C)c(S(=O)(=O)N2CCN(C(=O)CN3C(=O)NC(C)(C)C3=O)CC2)c1,·,-1,1,2,·,0,·,·
COc1ccc(-c2ccc(SCC(=O)N3c4ccccc4CC3C)nn2)cc1OC (configuration not stated),-5,-12,-9,-3,-3,1,i,-27
FC(F)(F)c1cccc(N2CCN(Cc3ccoc3)CC2)c1,1,·,3,6,8,40,·,·
CCCNC(=O)c1cc(C2CCCN(C(=O)c3ccccc3)C2)on1 (configuration not stated),·,-15,-1,-4,·,·,·,-1
CCOc1ccccc1CNC(=O)CCn1ccc2cc(S(=O)(=O)N3CCCCC3)ccc21,-12,-11,1,-6,-9,6,i,62*
Cc1ccc(C(=O)OCC(=O)NCc2ccccc2)cc1S(=O)(=O)N1CCCCC1,·,3,5,-3,·,-13,·,-3
O=C1C=C(c2ccc(F)c(Cl)c2)C[C@@H](c2ccc(F)cc2)C1,·,-11,-3,-7,·,46,·,-14
O=C(NCCN1CCOCC1)c1cc([N+](=O)[O-])ccc1Cl,-10,16,-2,0,-2,3,i,-3
O=C(CNC(=O)c1ccc(Br)o1)NCC1COc2ccccc2O1 (configuration not stated),·,-15,-1,5,·,-10,·,·
O=C(CSc1nnc(-c2cccnc2)n1-c1ccccc1)Nc1ccc2c(c1)OCO2,0,-11,2,0,-12,-8,i,9
Cc1ccc(C)c(Nc2ccc3nonc3c2[N+](=O)[O-])c1,0,-15,-1,-2,2,13,i,13

# With a hit mark in HIV Env fusion (from the list above):
structure	Yeast UUG start	MT1-MMP act inh	MT1-MMP act inh RFP	Rce1 inhib	HIV Env fusion
CCOc1ccccc1CNC(=O)CCn1ccc2cc(S(=O)(=O)N3CCCCC3)ccc21	-11	1	-6	i	62*
